YopH inh: YopH tyrosine phosphatase inhibitors, primary screen, biochemical, fluorescence Ex485/Em525 | AID 898, 2007 | 140,000 tested, 0.16% active | inhibition, %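 (about 10 µM by stock and volumes)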;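 active means inhibition of 50% or more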;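 further: controls were vehicle for no effect and minimum signal wells for full effect; inactives centre near -20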
Mtb growth: M. tuberculosis H37Rv growth inhibitors, H37Rv strain (AID 1626) | M. tuberculosis H37Rv growth inhibition; higher % means a stronger effect | 220,000 tested, 0.95% active | inhibition, % at 10 µM, or IC50 in µM where a hit was titrated;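 active means confirmed in a dose series; inconclusive means inhibition above 80% but not taken into the dose series; inactive means below 80% or under 30% at every dose of the series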;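 further: bacteria incubated seven days before Alamar blue readout; 0% = bacteria only wells and 100% = bacteria with antibiotic wells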
RecA intein inh: Mtb RecA intein splicing inhibitors, primary screen, biochemical, fluorescence, HTS. Protein RecA (Mycobacterium tuberculosis (strain ATCC 25618 / H37Rv)), P9WHJ3. cell-free RecA intein splicing. 290,000 tested, 0.75% active. inhibition, %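 (about 9 µM by stock and volumes)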. AID 2221, 2009; in the data active means inhibition above about 30%; inconclusive means no clear call, values can overlap the other calls;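 further: 0% = vehicle wells and 100% = reference inhibitor control wells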
Target sequence (P9WHJ3 whole entry, looked up): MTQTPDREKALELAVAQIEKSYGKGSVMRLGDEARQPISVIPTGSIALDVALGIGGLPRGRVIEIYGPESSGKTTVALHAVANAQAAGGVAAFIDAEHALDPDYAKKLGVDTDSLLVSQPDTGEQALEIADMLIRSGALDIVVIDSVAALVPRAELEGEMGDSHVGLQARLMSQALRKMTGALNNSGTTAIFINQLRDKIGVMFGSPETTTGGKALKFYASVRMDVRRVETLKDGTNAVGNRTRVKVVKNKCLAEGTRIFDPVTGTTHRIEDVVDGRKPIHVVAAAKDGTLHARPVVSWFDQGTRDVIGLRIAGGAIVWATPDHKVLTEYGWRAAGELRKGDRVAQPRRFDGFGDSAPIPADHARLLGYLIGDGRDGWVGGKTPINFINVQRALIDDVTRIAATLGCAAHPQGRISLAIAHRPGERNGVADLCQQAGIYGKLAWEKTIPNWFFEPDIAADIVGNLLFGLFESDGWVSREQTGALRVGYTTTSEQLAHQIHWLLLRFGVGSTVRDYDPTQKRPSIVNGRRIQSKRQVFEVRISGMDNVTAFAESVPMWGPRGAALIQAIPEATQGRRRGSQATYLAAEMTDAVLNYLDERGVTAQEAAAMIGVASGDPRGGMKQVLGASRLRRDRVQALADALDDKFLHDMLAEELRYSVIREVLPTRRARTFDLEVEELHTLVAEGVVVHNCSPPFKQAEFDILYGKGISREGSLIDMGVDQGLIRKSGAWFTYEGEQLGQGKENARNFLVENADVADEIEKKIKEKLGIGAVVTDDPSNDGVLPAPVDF
Arbovirus anti: antivirals against arbovirus infection, primary screen, cell-based, full library, 10K replicate subset. arbovirus infection cell-based antiviral screen. inhibition, % at 10 µM. 200,000 tested, 0.37% active. AID 1251, 2008;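 active means inhibition from about 30%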;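 further: bluetongue infection of BSR cells; cell survival read as ATP light after 72 h; 0% = infected wells without compound and 100% = uninfected wells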
Mtb bLac sens: beta-lactam sensitization of Mtb H37Rv, H37Rv; AID 434955, 2010; 330,000 tested, 0.27% active; M. tuberculosis H37Rv growth with meropenem, percent inhibition; hits of this screen are not shown here; inhibition, % at 25 µM;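 active means about 74% or more and at least 40 points above the plate without the antibiotic, then above 30% in a dose series; inconclusive means first-round hits that could not be retested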;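 further: growth measured after seven days incubation then overnight dye step; 0% = bacteria only wells and 100% = bacteria with antibiotic; twin plates without the antibiotic show which effects depend on it; some results filed as inactive read as strong as hits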
Arbovirus anti repeat: also measured in Arbovirus anti; calls as there; inhibition, %; measured here: 10K subset replicate screen; many hits read low in the repeat;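 first of two repeat runs on a subset; 0% = infected and 100% = uninfected wells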
The depositor's hits bear a star; ? = inconclusive; . = not tested or not shown; & = joins results of further samples.

SMILES	YopH inh	Mtb growth	RecA intein inh	Arbovirus anti	Mtb bLac sens	others
O=C(NC1CCCC1)C1CC1c1ccccc1 (centres undefined)	-34	-1%	2.0	-7	4
COc1ccc(-n2c(-c3ccccc3)c[n+]3c2CCC3)cc1	.	1%	1.0	.	-2
CNc1ccc(/C=C(\CCC(=O)O)c2nc3ccccc3s2)cc1[N+](=O)[O-]	-36	0%	1.8	13	6
Cc1cccc(NC(=S)NCC(c2ccccc2)N(C)C)c1 (centres undefined)	.	7%	1.0	5	4
CC(C)(C)c1csc(NC(=O)C2=COCCO2)n1	.	.	-2.1	.	-6
CC(C)[C@H](NC(=O)C1CCN(S(=O)(=O)c2ccc(F)cc2)CC1)C(=O)NCc1ccco1	.	.	2.8	.	-4
CCOC(=O)C1CCN(Cc2ccc3ccccc3c2)CC1	.	.	-1.3	.	-2
COc1ccc(C(=O)NC(C)CCc2ccccc2)c(OC)c1 (centres undefined)	.	.	2.0	.	0
COc1ccc(C(O)C(CN2CCOCC2)c2ccccc2)cc1 (centres undefined)	-9	-5%	1.0	4	-3
Cc1cccc(CSCCNC(=O)CSCc2ccc([N+](=O)[O-])cc2)c1	-30	-8%	4.1	-5	-7
COC(=O)c1cc(-c2ccc(Cl)cc2)n[nH]1	.	-8%	3.6	-8	-2
CCCCn1c(NS(=O)(=O)c2ccc(C)cc2)c(S(=O)(=O)c2ccccc2)c2nc3ccccc3nc21	-31	0%	83*	-9	-4
CCc1ccccc1NC(=O)c1ccc2c(c1)CCN2S(C)(=O)=O	.	.	-4.7	.	2
CCN1CCCC1CNC(=O)c1ccc2c(c1)N(Cc1ccccc1F)C(=O)c1ccccc1S2(=O)=O (centres undefined)	.	.	2.3	.	2
COc1ccc(NC(=O)CN(C)C(=O)c2ccc(NS(=O)(=O)c3ccc(F)cc3)cc2)cc1	.	.	-3.8	.	-2
Cc1ccc(SCC(=O)Nc2ccc(N3CCOCC3)cc2)cc1	.	0%	1.1	-5	-4
COc1cccc(C2SCC(=O)N2c2ccc(Br)cc2)c1OC (centres undefined)	-25	2%	-0.6	5	-9
Cc1ccccc1C(=O)OCCN(C)Cc1ccccc1	.	1%	3.1	1	2
NC(=O)Cn1c(=O)n(CC(=O)N2CCCCC2)c(=O)c2sccc21	.	.	-5.5	.	4
Cc1ccc(C(=O)NC2CCCc3ccccc32)cc1[N+](=O)[O-] (centres undefined)	.	.	5.0	.	5
Cc1csc(NC(=O)CSc2nc(C)cs2)n1	-30	-8%	.	-6	5
O=C(Cc1coc(-c2ccc(F)cc2)n1)N1CCOCC1	-34	-4%	-2.0	0	-8
O=C(NNC(=O)c1ccccc1Br)c1ccc(Cl)c(Cl)c1	5	-9%	4.1	-3	-1
COCC1CCN(C(=O)CC2C(=O)NCCN2Cc2cccc(Oc3ccccc3)c2)CC1 (centres undefined)	.	.	2.8	.	0
CS(=O)(=O)N1CCN(c2ccccc2NC(=O)c2cc3ccccc3o2)CC1	.	.	1.8	.	4
O=C1Nc2ccccc2C(O)(C(=O)NCc2ccco2)N1c1ccccc1 (centres undefined)	-22	-3%	-1.5	7	-7	Arbovirus anti repeat=5
Cc1cccnc1NC(=O)CCc1nnc2ccc(N3CCC4(CC3)OCCO4)nn12	.	.	3.5	.	?
CCCSc1nc(N2CCOCC2)c2c(c1C#N)CCCC2	-32	-7%	12	-28	73
CCOc1cc(/C=C2\SC(=S)N(NC(=O)c3cccnc3)C2=O)ccc1O	.	-1%	-2.0	2	4
Cc1ccc(NC(=O)C(C)N2C(=O)C3C4CC(C(Br)C4Br)C3C2=O)cc1 (centres undefined)	-29	-9%	1.1	6	8
CC(=O)C1C(c2cccc([N+](=O)[O-])c2)C2C(C)=NN=C2CC1(C)O (centres undefined)	-26	-3%	0.6	-4	-1
CCC(=O)c1ccc(N2CCN(C(=O)COc3ccccc3F)CC2)c(F)c1	.	8%	-4.6	6	-2
CCOC(=O)/C=C1\SCC(=O)N1CC(=O)Nc1ccc(C(C)C)cc1	-22	7%	1.4	-6	-8
CC1(C(=O)N(CC(=O)NC2CCCC2)Cc2ccc(Cl)cc2)CC(=O)N=C2C=CC=CN21 (centres undefined)	.	.	0.1	.	-5
O=C(O)CCc1ccc(-c2cccs2)n1Cc1ccco1	12	-8%	0.0	4	10
Cc1cc(C)c2c(n1)nn1c(N3CCN(c4ccccc4C)CC3)cc(C)nc21	5	.	.	.	-6
CCOc1ccc(C2CC(c3ccc(F)cc3)n3ncnc3N2)cc1 (centres undefined)	-16	.	-3.4	23	-4	Arbovirus anti repeat=3
COC(=O)C1=C(C(=O)OC)[C@@H]2N(C)c3ccc(OC)cc3[C@@]23C[C@@H](C(=O)OC)N(C(=O)c2cc(C)oc2C)C3=N1	.	10%	-0.2	.	-2
O=C(NC(Cc1ccccc1)C(=O)O)/C(=C\c1ccc(Cl)cc1)NC(=O)c1ccco1 (centres undefined)	.	.	-2.4	.	-8
Cc1c(NC(=O)/C(C#N)=C/c2cccs2)c(=O)n(-c2ccccc2)n1C	-22	-5%	-1.3	4	6
CCOc1ccc(OCC)c(NC(=O)C(NS(=O)(=O)c2ccc3c(c2)oc(=O)n3C)C(C)C)c1 (centres undefined)	-33	1%	.	-2	1
Cc1c(Cl)cccc1NC(=O)c1cc(-c2ccccc2O)n[nH]1	1	9%	5.6	30*	55
Cc1ccc(S(=O)(=O)CCC(=O)OCC(=O)NC2CCS(=O)(=O)C2)cc1 (centres undefined)	.	.	-5.7	.	-4
COc1cccc(-c2cc(C(F)(F)F)n3nc(C(=O)N4CCCCC4c4cccnc4)cc3n2)c1 (centres undefined)	.	-2%	-1.2	-26	90
CC(C)C(=O)NC(=S)Nc1nnn(C)n1	-14	4%	-0.7	1	-8
O=C(Nc1ccc(Cl)cc1)[C@@H]1[C@@H]2C(=O)N(c3ccc(Cl)cc3)C(=O)[C@@H]2[C@H]2C=CC=NN21	-15	-18%	1.3	10	3
Cn1ccnc1CN1CCCCC1C(=O)Nc1ccc(Oc2cccnc2)cc1 (centres undefined)	.	.	0.2	.	?
CC1=Nc2nc(N3CCCCC3)c(C#N)c3c4c(nc(c23)N1)N(c1ccc(C(C)C)cc1)C(=O)C4	-29	4%	-4.8	-1	5
CN1CCN(S(=O)(=O)c2ccc(NCc3ccc4c(c3)OCO4)nc2)CC1	.	-8%	-2.4	.	-3
CC(C)c1cc(-c2cc(C(=O)NCc3ccccc3)on2)nc(NC2CCCC2)n1	.	67%	3.6	.	92
O=C(c1ccc2nccnc2c1)N1CCN(c2ccccc2)CC1	.	.	0.1	.	-1
COc1cc(S(=O)(=O)NC2CCCC2)c(OC)cc1C	.	.	-1.4	.	3
C(=N\Nc1nc2ccccc2[nH]1)/c1ccccn1	.	6%	15	-26	.
CCN(CC)C(=O)CSc1nnc(C2CCCCC2)o1	-7	6%	.	6	-3
CC1CCCCN1C(=O)C(=O)c1cn(CC(=O)N2CCCC2)c2ccccc12 (centres undefined)	.	.	-0.8	.	-5
CC(=O)c1ccc(NC(=O)C(C)n2c3ccccc3c3nc(=O)cc(C)n32)cc1 (centres undefined)	.	.	-2.2	.	0
Cc1c(C(=O)N2CCCCCC2)c(S(=O)(=O)Nc2ccccc2F)c(C)n1C	.	.	1.7	.	2
CN(C)CC/C=C1/c2ccccc2Sc2ccc(Cl)cc21	.	-3%	-2.6	.	82&67
O=c1[nH]c2ccccc2nc1Cc1ccccc1	-25	-8%	2.3	-2	8
O=C1Nc2cc(C(F)(F)F)ccc2N2CCCCC12 (centres undefined)	.	.	1.1	.	3

Compounds from the list above that contain bromine:
SMILES	YopH inh	Mtb growth	RecA intein inh	Arbovirus anti	Mtb bLac sens	others
COc1cccc(C2SCC(=O)N2c2ccc(Br)cc2)c1OC (centres undefined)	-25	2%	-0.6	5	-9
O=C(NNC(=O)c1ccccc1Br)c1ccc(Cl)c(Cl)c1	5	-9%	4.1	-3	-1
Cc1ccc(NC(=O)C(C)N2C(=O)C3C4CC(C(Br)C4Br)C3C2=O)cc1 (centres undefined)	-29	-9%	1.1	6	8

Additional compounds:
SMILES	YopH inh	Mtb growth	RecA intein inh	Arbovirus anti	Mtb bLac sens	others
COCC1CCN(C(=O)C2CCC(=O)N(CCc3ccc(Cl)cc3)C2)CC1 (centres undefined)	.	.	-0.9	.	-4
Brc1ccc(-c2cn3ccccc3n2)cc1	.	-4%	3.9	.	12
Cc1ccc(NC(=S)Nc2ccc(Cl)c(Cl)c2)c(OC(F)F)c1	-16	?	19	-18	84
Cc1ccc(/C=C/C(=O)OCC(=O)Nc2ccccc2Sc2ccccc2)cc1	-19	6%	-2.9	10	12
O=C(NCc1cccnc1)c1cccc2c1C(=O)N(Cc1cccnc1)C2	-20	-3%	-0.5	-1	-6
COc1cc(/C=N/NC(=O)CCN2CCN(c3ccccc3)CC2)cc(OC)c1OC	-34	-4%	-1.6	10	-6
Cc1ccc(NC(=O)Nc2cnccn2)cc1	.	.	1.0	.	1
O=C(CCn1ccnc1)Nc1nc2ccccc2[nH]1	.	3%	-0.2	2	0
CCOC(=O)C1(CCOC)CCN(Cc2cc3ccccc3s2)CC1	.	.	-0.8	.	-9
Cn1cc(CNCc2cn[nH]c2-c2ccc(F)cc2)c(-c2ccc3c(c2)OCCO3)n1	.	5%	5.8	3	-2
CC(C)Cc1ccc(C(=O)NCCOc2ccccc2)o1	.	.	-2.1	.	4
CC(=Nc1c(C)n(C)n(-c2ccccc2)c1=O)c1c(O)n(Cc2ccccc2)c(=O)[nH]c1=O	-5	-4%	-3.4	-14	9
O=C(c1ccco1)c1cn(Cc2ccccc2Cl)c2ccccc12	-3	9%	0.0	7	68
O=C(CNC(=O)c1ccco1)OCC(=O)c1ccccc1	-46	.	0.1	0	5	Arbovirus anti repeat=0
Cc1ccc(/C=C2\SC(=S)N(CCCC(=O)Nc3cccc(C(=O)O)c3)C2=O)cc1	.	.	13	.	1
COc1ccc(NC(=O)CSc2nc3ccccc3c(=O)n2Cc2cccs2)c(OC)c1	-19	-8%	-1.2	-9	0
COc1cccc(-n2ccn(CC(=O)NCCc3ccccc3)c(=O)c2=O)c1	.	.	-1.4	.	-4
Cc1nn(CC(O)Cn2c3c(c4ccccc42)CCN(C)C3=O)c(C)c1Br (centres undefined)	4	-2%	6.5	36*	2
CCOCCCNC(=O)C1CCC(CNS(=O)(=O)c2ccc(OC)cc2)CC1 (centres undefined)	.	-4%	-0.3	6	1
COCCn1c(SCC(=O)NCc2ccc(OC)c(OC)c2)nc2ccccc21	.	.	1.6	.	-8

3 compounds out of the list, arranged by molecular weight, rising:
SMILES	YopH inh	Mtb growth	RecA intein inh	Arbovirus anti	Mtb bLac sens	others
Cc1ccc(NC(=O)Nc2cnccn2)cc1	.	.	1.0	.	1
COc1cccc(-n2ccn(CC(=O)NCCc3ccccc3)c(=O)c2=O)c1	.	.	-1.4	.	-4
Cc1ccc(/C=C/C(=O)OCC(=O)Nc2ccccc2Sc2ccccc2)cc1	-19	6%	-2.9	10	12

(continued)
SMILES	YopH inh	Mtb growth	RecA intein inh	Arbovirus anti	Mtb bLac sens	others
CCc1ccccc1NC(=O)C/C(C)=N/NC(=O)COc1ccccc1C	.	.	2.7	.	-8
COc1cccc(C(=O)C2CCCN(Cc3cn[nH]c3C3CCCCC3)C2)c1 (centres undefined)	.	8%	6.3	2	-3
C[C@@]12CC(=O)NC1N(C(=O)c1cccc(C(F)(F)F)c1)C(c1ccccc1OC(=O)c1cccc(C(F)(F)F)c1)C2 (some centres undefined)	1	3%	9.7	-7	-10
O=C(Cc1ccc([N+](=O)[O-])cc1)Nc1nccs1	.	-1%	-1.6	.	-2
CC1(C)N=C(N)N=C(N)N1c1ccccc1	-17	2%	-0.5	24	-3
CCOc1c(Cl)cc(CNc2ccc(N3CCCC3)cc2)cc1OC	.	2%	3.3	-7	.
Cc1ccc(NC(=S)N/N=C/c2ccc(Cl)c([N+](=O)[O-])c2)cc1	-22	-2%	1.9	7	.
Cc1cc([N+](=O)[O-])ccc1NC(=O)c1sc2ncn(CC(=O)N3CCOCC3)c(=O)c2c1C	.	.	-1.6	.	-1
CCC(c1nnnn1C1CCCC1)N1CCN(c2ccccc2)CC1 (centres undefined)	-23	0%	2.3	0	-1
CCOC(=O)c1c(NC(=O)CSc2c[nH]c3ccccc23)sc2c1CCC2	-38	-9%	1.6	7	-5
COc1cccc(C(C(=O)NC2CCCC2)N(C(=O)c2ccco2)c2cccc(C(C)=O)c2)c1OC (centres undefined)	.	.	12	.	-2

Screening data deposited in PubChem BioAssay by several laboratories.

These rows are one share of the data; count on the stated rates, not on these rows.
